Vaccinia stage: blocks a specific stage of Vaccinia orthopoxvirus infection. activity change (mCherry), % (concentration not given with the values). 0.01% of 89,000 active. Vaccinia-infected cells, mCherry/Venus stage reporter fluorescence; active compounds read low; some inactives read as strong as hits;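 active = mCherry past -33% and 40 or more points under the early reporter, replicates agreeing; inconclusive = past -33% without that gap or agreement; tested in A549 cells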;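 also: scaled between vehicle wells and reference inhibitor wells; 23 nL library stock went into each well; one replicate is shown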
Vaccinia stage Venus: further read-out of Vaccinia stage, marked with its call; activity change (Venus), %; measured here: Venus reporter, other viral stage;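 negative = less Venus signal; first of two replicates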
Numbers without * were called inactive; ? = inconclusive; nt = not tested or not shown. A portion of the library; count on the stated rates, not on these rows.

SMILES	Vaccinia stage	Vaccinia stage Venus
COc1ccc(NC(=O)Nc2ccc3c(c2)CC(=O)N([C@@H](C)CO)C[C@H](C)[C@@H](CN(C)S(=O)(=O)c2cccs2)O3)cc1	11	14
COc1ccc2c3c([nH]c2c1)[C@H](CO)N(C(=O)CN(C)C)CC31CCN(C(=O)c2cccnc2)CC1	13	4
CC(=O)N(C)C[C@@H]1Oc2ncc(-c3ccc(C#N)cc3)cc2C(=O)N([C@@H](C)CO)C[C@H]1C	13	5
COc1ccc(NC(=O)N2C[C@H](O)COC[C@H]3O[C@H](CC(=O)N4CCOCC4)CC[C@@H]32)cc1	-1	-7
O=C(C[C@H]1CC[C@@H](NC(=O)C2CCC2)[C@H](CO)O1)NCc1ccccc1Cl	16	4
COc1ccc(CNC(=O)C[C@@H]2CC[C@H]3[C@H](COc4ccc(NC(=O)C(C)C)cc4C(=O)N3C)O2)cc1	8	12
CCNC(=O)C[C@@H]1CC[C@@H]2[C@H](COC[C@@H](O)CN2C(=O)CC)O1	8	8
COCC(=O)Nc1ccc2c(c1)[C@H]1C[C@H](CC(=O)NCC3CC3)O[C@@H](CO)[C@H]1O2	8	5
C[C@@H]1CN([C@H](C)CO)C(=O)c2cc(NC(=O)Nc3ccccc3)ccc2O[C@H]1CN(C)C(=O)NC1CCCCC1	16	12
Cc1noc(C)c1NC(=O)N(C)C[C@H]1Oc2ccc(NS(=O)(=O)c3c(C)noc3C)cc2CC(=O)N([C@@H](C)CO)C[C@H]1C	20	18
CC(C)NC(=O)N(C)C[C@H]1Oc2ccc(NC(=O)c3ccncc3)cc2CC(=O)N([C@H](C)CO)C[C@@H]1C	31	22
COc1ccc2c3c([nH]c2c1)[C@@H](CO)N(C(=O)c1cccnc1)CC31CCN(Cc2ccccc2)CC1	-27	-29
COc1ccccc1NC(=O)N[C@H]1CC[C@H](CC(=O)N2CCC(Cc3ccccc3)CC2)O[C@@H]1CO	-13	-5
C[C@H]1CCCCO[C@H](CN(C)C(=O)Nc2ccc(F)cc2)[C@@H](C)CN([C@@H](C)CO)C(=O)c2cc(NC(=O)c3ccncc3)ccc2O1	0	0
COCC#Cc1ccc2c(c1)O[C@H](CN(C)Cc1ccncc1)[C@H](C)CN([C@H](C)CO)S2(=O)=O	2	6
Cc1noc(C)c1S(=O)(=O)Nc1ccc2c(c1)C(=O)N([C@@H](C)CO)C[C@@H](C)[C@@H](CN(C)CC1CC1)OCCCC[C@@H](C)O2	1	-1
COCCNC(=O)C[C@@H]1C=C[C@@H](NC(=O)NC2CCCCC2)[C@@H](CO)O1	0	16
CCCNC(=O)N[C@H]1CC[C@H](CC(=O)NC2CCC2)O[C@H]1CO	0	-3
O=C(C[C@H]1C=C[C@@H](NC(=O)CC2CC2)[C@@H](CO)O1)NCC(F)(F)F	0	-2
C[C@@H]1CCCCO[C@H](CN(C)Cc2ccc(C(F)(F)F)cc2)[C@H](C)CN([C@H](C)CO)C(=O)c2cc(NS(=O)(=O)c3cccs3)ccc2O1	?	nt
CCCNC(=O)C[C@H]1CC[C@H]2[C@@H](COC[C@H](O)CN2C(=O)Nc2c(C)noc2C)O1	4	9
O=C(Cc1ccccn1)NCC[C@@H]1CC[C@@H](NS(=O)(=O)c2ccc(Cl)cc2)[C@H](CO)O1	5	14
CC(=O)N1CC2(C1)[C@H](c1ccc(-c3cccc(F)c3)cc1)[C@@H](CO)N2CC1CCCC1	-22	-15
Cc1cc(C(=O)Nc2cccc3c2O[C@@H](CN(C)Cc2ccc4c(c2)OCO4)[C@H](C)CN([C@H](C)CO)C3=O)n(C)n1	3	3
C[C@H](CO)N1C[C@H](C)[C@H](CN(C)S(=O)(=O)c2ccc(F)cc2)Oc2c(NC(=O)CCCCCC(=O)Nc3ccccc3N)cccc2C1=O	-6	-5

More structures:
SMILES	Vaccinia stage	Vaccinia stage Venus
CC(=O)N1[C@H](CO)[C@@H](c2ccccc2)C12CN(Cc1cc(F)ccc1F)C2	0	5
CCCN1[C@@H]2c3ccc(-c4ccccc4F)c(=O)n3C[C@@H]2[C@@H](CO)[C@@H]1C(=O)N1CCOCC1	-1	1
C[C@H]1CCCCO[C@H](CN(C)C(=O)c2ccccc2)[C@@H](C)CN([C@@H](C)CO)C(=O)c2cc(NS(=O)(=O)c3ccccc3)ccc2O1	0	-5
COc1ccccc1-c1cnc2c(c1)C(=O)N([C@@H](C)CO)C[C@@H](C)[C@H](CN(C)Cc1ccncc1)O2	7	4
CN(C)C(=O)C[C@@H]1CC[C@@H]2[C@@H](COc3ccc(NC(=O)C4CCC4)cc3C(=O)N2C)O1	10	4
COc1ccc(CN(C)C[C@H]2Oc3ccc(NC(=O)Cn4cnnn4)cc3CC(=O)N([C@@H](C)CO)C[C@@H]2C)cc1	10	0
C[C@@H]1CN([C@@H](C)CO)S(=O)(=O)c2ccc(C3=CCCCC3)cc2O[C@H]1CN(C)C(=O)C1CCOCC1	-11	-16
C[C@@H]1CN([C@H](C)CO)C(=O)c2cc(NC(=O)Nc3ccccc3)ccc2O[C@@H](C)CCCCO[C@H]1CN(C)C(=O)c1ccccc1	-21	-23
C[C@@H]1CN([C@H](C)CO)C(=O)c2cc(NC(=O)Cn3cnnn3)ccc2O[C@@H]1CN(C)CC1CCCCC1	4	9
COC(=O)C[C@H]1CC[C@@H](NC(=O)Nc2ccc(C(F)(F)F)cc2)[C@H](CO)O1	-2	2
COc1ccc(CN(C)C[C@H]2Oc3ccc(NC(=O)CCCCCC(=O)Nc4ccccc4N)cc3C(=O)N([C@H](C)CO)C[C@H]2C)cc1	-14	-11
C[C@H](CO)N1C[C@H](C)[C@@H](CN(C)C(=O)Nc2ccc3c(c2)OCO3)Oc2ccc(NC(=O)Nc3ccc(F)cc3)cc2CC1=O	22	16
C[C@@H]1CN([C@H](C)CO)C(=O)c2cccc(NC(=O)c3nc4ccccc4s3)c2O[C@H]1CN(C)Cc1ccc(-c2ccccc2)cc1	-26	-25
CCCN(C)C[C@@H]1Oc2cc(C#Cc3ccccc3OC)ccc2S(=O)(=O)N([C@@H](C)CO)C[C@@H]1C	-8	-18
CCCNC(=O)N1C[C@@H]2[C@H](c3ccccc31)[C@H](CO)N2C(=O)Nc1ccc(F)cc1	-6	6
C[C@H](NC(=O)C[C@H]1CC[C@H](NS(=O)(=O)c2cccc(F)c2)[C@H](CO)O1)c1ccccc1	11	0
COc1ccc(NC(=O)Nc2ccc3c(c2)C(=O)N([C@@H](C)CO)C[C@@H](C)[C@@H](CN(C)C(=O)Cc2ccccc2)OCCCC[C@@H](C)O3)cc1	-22	-19
CCNC(=O)[C@H]1[C@H](CO)[C@H]2Cn3c(ccc(-c4ccccc4)c3=O)[C@H]2N1Cc1cc(F)ccc1F	-2	-2
O=C(C[C@@H]1CC[C@H](NC(=O)C2CCOCC2)[C@H](CO)O1)Nc1nccs1	-4	-4
Cc1cccc(S(=O)(=O)N2CCCCN3[C@H](C2)[C@H](c2ccc(-c4ccccc4)cc2)[C@@H]3CO)c1	-27	-18
CC(C)CC#Cc1cnc2c(c1)C(=O)N([C@@H](C)CO)C[C@@H](C)[C@@H](CN(C)C(=O)c1ccccc1F)O2	14	8
O=C(Cc1cccnc1)N1CC2(C1)[C@H](c1ccccc1)[C@H](CO)N2C(=O)C1CCCCC1	0	8
C[C@@H]1CCCCO[C@H](CN(C)S(=O)(=O)c2cccs2)[C@@H](C)CN([C@H](C)CO)C(=O)c2cc(NC(=O)CCC(F)(F)F)ccc2O1	10	-1
CC=Cc1ccc2n(c1=O)C[C@H]1[C@H](CO)[C@@H](C(=O)NC3CCC3)N(Cc3ccncc3)[C@@H]21 (mixture of isomers)	5	17
COc1ccccc1CNC(=O)C[C@H]1CC[C@@H]2[C@H](COC[C@@H](O)CN2Cc2ccc3c(c2)OCO3)O1	-8	-5

One compound at a time (already shown). Order of screens: Vaccinia stage, Vaccinia stage Venus
Results for `C[C@@H]1CN([C@H](C)CO)C(=O)c2cc(NC(=O)Nc3ccccc3)ccc2O[C@H]1CN(C)C(=O)NC1CCCCC1` : 16, 12
Results for `C[C@@H]1CN([C@H](C)CO)C(=O)c2cccc(NC(=O)c3nc4ccccc4s3)c2O[C@H]1CN(C)Cc1ccc(-c2ccccc2)cc1` : -26, -25

New compounds follow
SMILES	Vaccinia stage	Vaccinia stage Venus
CCCN1[C@@H]2Cn3c(ccc(-c4ccc(F)cc4)c3=O)[C@H]1[C@@H](C(=O)NCC)[C@@H]2CO	6	-2
C[C@H]1CN([C@@H](C)CO)C(=O)c2cc(C3=CCCC3)cnc2O[C@H]1CN(C)C	18	7
O=C(NC1CCCCC1)N1CC(=O)N2[C@@H](CO)[C@@H](c3ccc(-c4ccccc4)cc3)[C@@H]2C1	-22	-12
Cc1cccc(S(=O)(=O)N2C[C@@H]3[C@H](c4ccccc42)[C@@H](CO)N3C(=O)c2ccccc2)c1	5	-4
CN1c2ccc(-c3cccc(C#N)c3)cc2[C@@H]2[C@@H](CCN2S(=O)(=O)c2ccccc2)[C@@H]1CO	-23	-17
O=C(C1CCCCC1)N1CC2(C1)[C@H](c1ccccc1)[C@@H](CO)N2CCC(F)(F)F	-9	-3
O=C(C[C@@H]1C=C[C@@H](NC(=O)Cc2cccnc2)[C@@H](CO)O1)Nc1ccccc1	-2	8
Cc1ccccc1S(=O)(=O)NCC[C@@H]1CC[C@H](NC(=O)C2CCCC2)[C@H](CO)O1	-7	4
Cn1cnc(S(=O)(=O)N[C@@H]2CC[C@H](CC(=O)Nc3ccccc3)O[C@H]2CO)c1	-1	-6
COc1ccc(NC(=O)N(C)C[C@@H]2Oc3ccc(NS(=O)(=O)c4cn(C)cn4)cc3C(=O)N([C@H](C)CO)C[C@H]2C)cc1	15	12
O=C(Nc1nccs1)[C@@H]1[C@@H](CO)[C@@H]2Cn3c(cccc3=O)[C@H]1N2C(=O)C1CCC1	7	3
C[C@@H]1CCCCO[C@@H](CN(C)C(=O)Nc2cccc3ccccc23)[C@H](C)CN([C@H](C)CO)C(=O)c2cc(NC(=O)Nc3ccc4c(c3)OCO4)ccc2O1	28	17
CN1C(=O)CS(=O)(=O)C1c1ccccc1 (stereo not drawn)	8	12
C[C@@H]1CN([C@H](C)CO)C(=O)c2cc(NC(=O)CCCN(C)C)ccc2O[C@@H](C)CCCCO[C@@H]1CN(C)Cc1ccc2c(c1)OCO2	24	15
C[C@@H]1CN([C@@H](C)CO)C(=O)c2cc(NS(=O)(=O)c3ccc(Cl)cc3)ccc2O[C@H]1CN(C)Cc1ccc(-c2ccccc2)cc1	-34	-28
CC(C)NC(=O)N(C)C[C@H]1Oc2ccc(NS(=O)(=O)c3ccc(F)cc3)cc2CC(=O)N([C@@H](C)CO)C[C@@H]1C	8	5
CC(C)NC(=O)N1Cc2cc(C(=O)NCC(F)(F)F)nc(-c3cccc(-c4cc5ccccc5o4)c3)c2[C@@H]1CCO	-16	-13
C[C@@H]1CN([C@H](C)CO)C(=O)c2cccc(NC(=O)c3nc4ccccc4s3)c2O[C@H]1CN(C)C(=O)Nc1ccccc1	7	26
CO[C@@H]1CN(C)C(=O)c2ccc(NC(=O)C3CCCC3)cc2OC[C@H](C)N(C(C)=O)C[C@@H]1C	9	8
C[C@H]1CN([C@@H](C)CO)C(=O)Cc2cc(NC(=O)Nc3ccc(C(F)(F)F)cc3)ccc2O[C@@H]1CN(C)Cc1ccc(C(=O)Nc2ccccc2N)cc1	-16	1
C[C@H](CO)N1C[C@H](C)[C@H](CN(C)C(=O)c2ccccc2)OCCCC[C@H](C)Oc2ccc(NS(=O)(=O)c3ccc(Cl)cc3)cc2C1=O	?	nt
C[C@H]1CN([C@@H](C)CO)C(=O)c2cccc(NC(=O)c3nc4ccccc4s3)c2O[C@@H]1CN(C)Cc1ccncc1	-21	-21
CC=Cc1ccc2n(c1=O)C[C@H]1[C@H](CO)[C@@H](C(=O)NCC3CC3)N(Cc3cccnc3)[C@@H]21 (mixture of isomers)	7	-2
O=C(C[C@H]1CC[C@H]2[C@@H](COC[C@H](O)CN2S(=O)(=O)c2ccc(Cl)cc2)O1)NCCN1CCCCC1	10	-6
CC(C)NC(=O)N1CC2(C1)[C@H](c1ccccc1)[C@@H](CO)N2C(=O)C1CCCCC1	12	4

Compounds above that have two or more sulfur atoms, in the order listed:
SMILES	Vaccinia stage	Vaccinia stage Venus
COc1ccc(NC(=O)Nc2ccc3c(c2)CC(=O)N([C@@H](C)CO)C[C@H](C)[C@@H](CN(C)S(=O)(=O)c2cccs2)O3)cc1	11	14
C[C@@H]1CCCCO[C@H](CN(C)Cc2ccc(C(F)(F)F)cc2)[C@H](C)CN([C@H](C)CO)C(=O)c2cc(NS(=O)(=O)c3cccs3)ccc2O1	?	nt
C[C@@H]1CCCCO[C@H](CN(C)S(=O)(=O)c2cccs2)[C@@H](C)CN([C@H](C)CO)C(=O)c2cc(NC(=O)CCC(F)(F)F)ccc2O1	10	-1

In a second layout: results already given.
molecule: Cc1cccc(S(=O)(=O)N2C[C@@H]3[C@H](c4ccccc42)[C@@H](CO)N3C(=O)c2ccccc2)c1
  Vaccinia stage = 5	Vaccinia stage Venus = -4

molecule: CN1c2ccc(-c3cccc(C#N)c3)cc2[C@@H]2[C@@H](CCN2S(=O)(=O)c2ccccc2)[C@@H]1CO
  Vaccinia stage = -23	Vaccinia stage Venus = -17

molecule: O=C(C1CCCCC1)N1CC2(C1)[C@H](c1ccccc1)[C@@H](CO)N2CCC(F)(F)F
  Vaccinia stage = -9	Vaccinia stage Venus = -3

By substructure, the compounds so far containing a cyano group
SMILES	Vaccinia stage	Vaccinia stage Venus
CC(=O)N(C)C[C@@H]1Oc2ncc(-c3ccc(C#N)cc3)cc2C(=O)N([C@@H](C)CO)C[C@H]1C	13	5
CN1c2ccc(-c3cccc(C#N)c3)cc2[C@@H]2[C@@H](CCN2S(=O)(=O)c2ccccc2)[C@@H]1CO	-23	-17

Assay outcomes: PubChem BioAssay, Broad Institute
